High-throughput results (PubChem)
Rango dissoc inh – inhibition of RanGTP-driven Rango-importin beta dissociation; Potency, µM (titrated, usually from 46.1 µM), inactives show top-dose activity change, negative = inhibition; 0.071% of 340,000 active; Biochemical FRET Rango-importin beta, RanGTP-induced dissociation; O95149+P62826; AID 540253; active means falling FRET ratio curve, often poorly fitted, with flat reads before Ran was added; inconclusive means other falling curves, or compound fluorescence or quenching; inactive means flat or rising ratio curve;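 further: potency means the concentration at half of the fitted maximal effect; % of control where 0% means no effect; nearly all actives have a fitted effect of over 45% in size; -100% = wells without RanGTP and RCC1; the record marks most hits as doubtful in a second field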
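Rango/importin beta premix (0.1/0.25 uM final), PBS + 1 mM DTT + 0.02% Tween-20 + 0.1% BSA; cpd 5 min RT; FRET pre-read; + RanGTP-RCC1 (0.6 uM Ran, 2 mM GTP, 0.2 uM RCC1); 45 min RT; FRET post-read, ex 430, em 486/530 nm.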
miR-21 FLuc – raises the signal of a miR-21 reporter; HeLa miR-21 FLuc reporter, luciferase, 48 h; Potency, µM (top dose mostly 38.3 µM), for inactives: at the highest dose reporter change, positive = more light; 340,000 tested, under 10 active; AID 2288; active = well fitted rising curve with a large enough effect; inconclusive = small, poorly fitted or top-dose-only effect; inactive = no such curve, though single readings can be large or run the other way;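 further: % of control where 0% means no effect; miR-21 action dims this reporter so a rising signal means less miR-21 action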
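HeLa miR-21-FLuc reporter line, endogenous miR-21; 2000 cells/well in DMEM/10% FBS; compound titration up to ~40uM final, 48 h, 37 degree Celsius; luciferase detection reagent, 15 min lysis, CCD luminescence.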
Rango complex inh – prevents formation of the Rango-importin beta complex; Potency, µM (highest dose often 92.2 µM), for inactives: top-dose inhibition of complex formation; 0.031% of 340,000 active; Q14974; AID 540263; Rango CFP/YFP FRET sensor + importin beta, 45 min; active = rising FRET ratio curve, often small or poorly fitted; inconclusive = mostly compound fluorescence or quenching in the first reads; inactive = flat curves in all reads;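 further: potency means the concentration at half of the fitted maximal effect; 0% = DMSO wells and 100% = buffer wells lacking importin beta; nearly all actives have a fitted effect of over 15% in size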
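Inhibition scored from the CFP 486 nm/YFP 530 nm FRET ratio 45 min after adding 0.125 microM importin beta to 50 nM Rango biosensor preincubated 5 min with compound (room temperature, PBS with DTT, Tween-20, BSA). No-importin wells as positive control.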
GLA inh pH 4.5 – blocks human alpha-galactosidase A at pH 4.5. purified enzyme, 4-MU-alpha-Gal fluorescence, pH 4.5. activity change, negative = inhibition, % at 105 µM. 230,000 tested, under 10 active. AID 1467; inconclusive = small, poorly fitted or top-dose-only inhibition, or a rising curve; inactive = flat fitted curve, though single readings scatter; no compound was filed as active;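 further: 0% = full activity with enzyme and -100% = basal without enzyme; dose as in the result columns while the protocol names 77 µM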
Target sequence (P06280 whole entry, looked up): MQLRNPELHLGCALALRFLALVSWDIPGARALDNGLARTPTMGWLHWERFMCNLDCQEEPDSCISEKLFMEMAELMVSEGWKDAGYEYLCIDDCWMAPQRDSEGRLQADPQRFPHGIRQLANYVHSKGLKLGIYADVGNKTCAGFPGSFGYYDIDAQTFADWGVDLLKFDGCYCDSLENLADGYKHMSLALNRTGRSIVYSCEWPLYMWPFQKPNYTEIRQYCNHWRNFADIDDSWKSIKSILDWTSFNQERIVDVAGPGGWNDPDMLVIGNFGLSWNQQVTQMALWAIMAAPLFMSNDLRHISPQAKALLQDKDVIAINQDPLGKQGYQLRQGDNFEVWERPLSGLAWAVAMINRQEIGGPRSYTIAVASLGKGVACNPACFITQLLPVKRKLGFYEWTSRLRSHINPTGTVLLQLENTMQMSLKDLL
* marks the source's active call; other numbers are inactive results; ? = inconclusive; . = not tested or not shown; & = joins results of further samples; [ ] = dose if it differs, or a comment.

SMILES | Rango dissoc inh | miR-21 FLuc | Rango complex inh | GLA inh pH 4.5
COc1ccc(CNC(=O)c2cc3c(s2)CN(Cc2ccccc2)C3)cc1 | -3.3% | -3.2% | -1.2% | -6.7
O=S(=O)(Cc1ccccc1)Oc1ccccc1 | -6.9% | -4.3% | 9.0% | .
N#C/C(=C\c1ccc[nH]1)C(=O)NC1CC1 | 4.8% | -12.0% | -0.7% | -7.0
O=C(NCc1ccc(F)cc1)c1cnc2n(c1=O)CCS2 | 15.4% | -5.9% | -4.7% | 2.6
COc1cc2[nH]c(=S)n(CCN3CCCCC3C)c(=O)c2cc1OC (centres undefined) | 0.2% | -3.5% | -4.4% | -4.3
O=C(NCc1ccccc1)C12CC3CC(CC(Br)(C3)C1)C2 | 1.1% | -1.5% | -0.7% | .
O=C(CCN(CCO)Cc1ccccc1)Nc1ccc(Br)cc1 | 1.5% | -17.8% | 5.6% | 4.1
COc1ccc(C2c3[nH]c4ccccc4c3CCN2C(=O)c2cn3ccccc3n2)c(F)c1 (centres undefined) | 3.9% | -12.0% | 1.3% | -8.7
CC(=O)C1=C(C)NC(SCC(=O)Nc2nc3ccccc3s2)=C(C#N)C1c1ccc(Cl)cc1 (centres undefined) | ? | -17.1% | ? | -2.2
O=C(COC(=O)CCSc1ccc(Cl)cc1)Nc1ccc(F)cc1 | 6.4% | -1.4% | 9.8% | 2.9
O=C(CCCc1ccccc1)NCCS(=O)(=O)N1CCN(c2ccccc2F)CC1 | -14.4% | . | 0.7% | .
Cc1cc(N2CCCC(C(=O)Nc3cccc(Cl)c3)C2)n2ncnc2n1 (centres undefined) | 8.1% | -5.0% | 1.4% | -7.2
Cc1ccc(OCC(=O)NNC(=O)CCC(=O)Nc2ccc(C)cc2C)cc1 | 1.9% | 3.3% | -1.9% | 4.1
CCCc1nnc(SCC(=O)Nc2nnc(CC)s2)n1CC1CCCO1 (centres undefined) | -5.8% | -4.1% | -0.3% | .
CCCCCC(=C/c1ccccc1)/C=N/Nc1ccc(S(=O)(=O)N2CCOCC2)cc1[N+](=O)[O-] | 28.0% | . | -2.2% | .
CCN(CC)S(=O)(=O)c1ccc(N2CCOCC2)c(NC(=O)c2ccco2)c1 | -15.6% | . | 3.9% | .
O=C(COC(=O)C1CC(=O)N(C2CCCCC2)C1)c1ccc(F)cc1 (centres undefined) | 31.2% | -6.9% | 8.4% | 4.0
O=C(c1coc2ccc(O)c(CN3CCOCC3)c12)C1CC1 | 11.6% | -9.9% | -2.3% | 2.2
CCSc1nnc(NC(=O)c2cccs2)s1 | 35.8% | -40.9% | 4.0% | 5.6
CCNc1nc(NC(C)C)nc(NS(=O)(=O)c2ccc(N)cc2)n1 | 26.3% | -2.7% | -2.0% | 6.1
CC(C)[C@H](NC(=O)NCCC1=CCCCC1)C(=O)O | 2.0% | 6.1% | -0.4% | 2.0
Cc1cc(OCC(O)CN2CCCC2)cc(C)c1Cl (centres undefined) | -14.7% | -2.4% | 4.8% | .
N#Cc1c2c(c(=S)n(-c3ccccc3)c1N)CCCC2 | ? | -17.1% | ? | -10.5
Cc1ccc(S(=O)(=O)N(CC(=O)NCCC2=CCCCC2)Cc2ccccc2F)cc1 | 17.1% | 4.5% | -2.3% | -3.9
O=c1c(/C=N/O)c(Nc2ccccc2)nc2ccccn12 | -0.6% | 22.1% | -1.1% | 1.6
CCOC(=O)Cc1csc(NC(=O)c2ccc(OC)c(OC)c2)n1 | 3.1% | -1.4% | 1.0% | 6.6
COC(CNC(=O)c1cccnc1)OC | -11.9% | 1.3% | -0.2% | -1.7
CNC(=O)c1cc2cc(Cl)cc(OC)c2oc1=O | -3.6% | . | 0.9% | .
O=C(NNC(=O)OCc1ccccc1)OCc1ccccc1 | 1.2% | . | -4.2% | .
Cc1ccc2nc(SC(C)C(=O)N3CCOCC3)[nH]c2c1 (centres undefined) | 2.7% | -38.8% | -1.5% | 1.3[21.1 µM]
O=S(=O)(Nc1cccc(Cl)c1)c1ccc2oc(=S)[nH]c2c1 | 13.5% | -8.0% | 1.6% | 0.0
C[C@@H](C(=O)NCc1ccc(S(C)(=O)=O)cc1)[C@H]1C[C@]1(C)[C@H](NC(=O)OCc1ccccc1)c1ccccc1 | -13.3% | 13.3% | 0.3% | -22.2&-9.0
CN(C)c1ccc(N/C(N)=N/c2nc(C(F)(F)F)cc(C(F)(F)F)n2)cc1 | -0.2% | -12.3% | 0.9% | -9.1
Cc1csc(Sc2nc3c(c(=O)[nH]c(=O)n3C)n2CCCc2ccccc2)n1 | 1.6% | -8.8% | ? | 5.7
c1nc2n(n1)C1=C(CCCC1)C1(CCCCC1)N2 | 36.7% | -10.4% | 1.4% | -12.0
Cc1ccc(S(=O)(=O)NNC2=NS(=O)(=O)c3ccccc32)c(C)c1 | 1.1% | -1.1% | 1.8% | 2.4
O=C(c1ccc(F)cc1)N1CCN2C(=O)c3ccccc3C12c1ccccc1 (centres undefined) | 27.2% | 7.6% | 4.9% | -2.0
O=C(CCCc1nc2ccccc2s1)NCc1ccccc1F | -17.6% | -20.1% | -3.1% | 2.8
CCOCC(=O)Nc1ccc(S(=O)(=O)NCCc2ccccc2)cc1 | -6.1% | 4.7% | -1.1% | 4.6
CC(=O)N1CCN(Cc2nc3ccc(Cl)cc3n2CCO)CC1 | 0.2% | 0.6% | 1.1% | .
COc1cc(OC)c2c(-c3cccc(-c4sccc4C(C)=O)c3)cc(=O)oc2c1 | -13.3% | . | -2.9% | -15.7
NS(=O)(=O)c1ccc(CCNC(=O)c2ccc(NC3=NC4CS(=O)(=O)CC4S3)cc2)cc1 (centres undefined) | 0.4% | 6.5% | 3.1% | .
COCCCNc1ncnc2c1cnn2-c1ccc(C)cc1C | 3.3% | -13.1% | -3.7% | 5.1
Cc1noc(C)c1CSc1nc2sc3c(c2c(=O)n1C)CCCC3 | 7.2% | -7.9% | -3.9% | -4.3
Nn1c(SCC(=O)Nc2ccccc2)nnc1C1CCCCC1 | 10.6% | . | -0.9% | .

4 entries from above, field by field:
CC(=O)N1CCN(Cc2nc3ccc(Cl)cc3n2CCO)CC1
  Rango dissoc inh: 0.2%
  miR-21 FLuc: 0.6%
  Rango complex inh: 1.1%
  GLA inh pH 4.5: .
COc1cc(OC)c2c(-c3cccc(-c4sccc4C(C)=O)c3)cc(=O)oc2c1
  Rango dissoc inh: -13.3%
  miR-21 FLuc: .
  Rango complex inh: -2.9%
  GLA inh pH 4.5: -15.7
NS(=O)(=O)c1ccc(CCNC(=O)c2ccc(NC3=NC4CS(=O)(=O)CC4S3)cc2)cc1 (centres undefined)
  Rango dissoc inh: 0.4%
  miR-21 FLuc: 6.5%
  Rango complex inh: 3.1%
  GLA inh pH 4.5: .
COCCCNc1ncnc2c1cnn2-c1ccc(C)cc1C
  Rango dissoc inh: 3.3%
  miR-21 FLuc: -13.1%
  Rango complex inh: -3.7%
  GLA inh pH 4.5: 5.1

Following part:
SMILES | Rango dissoc inh | miR-21 FLuc | Rango complex inh | GLA inh pH 4.5
COc1ccc(N2CCN(C(=O)C(=O)c3cn(CC(=O)N4CCOCC4)c4ccccc34)CC2)cc1 | 5.9% | -0.8% | 0.1% | .
CC(=O)N1c2ccc(S(=O)(=O)N(C)C3CCCCC3)cc2CC1C (centres undefined) | -5.8% | -9.9% | 0.2% | .
COc1cc(C)c(Br)cc1S(=O)(=O)N1CCOCC1 | 0.9% | -7.7% | -0.9% | -11.2
CC(C)CN(C(=O)COC(=O)c1ccc(Cl)c(N)c1)c1c(N)n(Cc2ccccc2)c(=O)[nH]c1=O | 7.6% | . | 0.4% | .
Cc1nn(-c2ccccc2)c(C)c1Cc1ccc(O)cc1 | -10.7% | -39.5% | 1.8% | .
O=C(Nc1cc(=O)[nH]c2ncnn12)c1ccccc1 | -8.9% | -11.1% | ? | -17.8
COc1ccccc1N1CCN(Cc2ccc(O)c3ncccc23)CC1 | -5.4% | ? | 5.0% | -1.8
Cc1ccc(C2c3c(oc4ccccc4c3=O)C(=O)N2c2nncs2)cc1 (centres undefined) | -3.8% | 2.0% | 3.6% | 1.6
COC(=O)CC1C(=O)NCCN1C(=S)NC(=O)CCc1ccccc1 (centres undefined) | 12.3% | -1.2% | 3.7% | 4.2
COc1ccc(CCN(C(=O)c2cccc(F)c2)C2CC(=O)N(c3ccccc3)C2=O)cc1 (centres undefined) | -10.0% | 1.5% | -3.3% | -9.9
COc1ccc2c(c1)cc(C(=O)N[C@@H](CCSC)C(=O)N1CCC[C@H]1C(=O)O)n2C | 3.2% | -3.2% | 0.2% | .
COc1cc(C)ccc1OCCOc1ccccc1Cl | 0.6% | -63.1% | ? | 3.6
CCc1ccc(C2=NN(CCC(=O)NC(C)CCc3ccccc3)C(=O)CC2)cc1 (centres undefined) | 1.8% | 13.8% | ? | -8.5
O=C1Cc2ccccc2C(c2ccc(Cl)cc2Cl)N1 (centres undefined) | 14.9% | -2.2% | -3.5% | 2.8
Cc1ccnc(NCc2cc(C)ccc2O)c1 | 17.9% | -42.5% | -0.4% | .
C=CCc1cccc2cc(C(=O)NNC(=O)CC#N)c(=O)oc12 | -6.5% | -11.0% | 0.4% | -23.7
FC(F)(F)c1cccc(NC(=S)NCCc2ccccn2)c1 | -16.2% | -11.6% | 0.3% | 0.1
Cc1ccc(/C=N/NS(=O)(=O)c2ccccc2)o1 | -4.4% | -8.2% | -2.4% | -0.8
Nc1c(S(=O)(=O)c2cccs2)c2nc3ccccc3nc2n1Cc1cccs1 | -5.7% | -0.8% | -2.9% | 12.8
CCOC(=O)C1=C(C)NC(=O)NC1c1c(OC)ccc2ccccc12 (centres undefined) | 5.8% | -4.6% | 3.9% | .
O=C(NCC1CCCCC1)c1cccc([N+](=O)[O-])c1 | 38.4% | -9.2% | 3.2% | .
O=C(Oc1cccc2c(OC(=O)N3CCOCC3)cccc12)N1CCOCC1 | -3.1% | -0.8% | 3.0% | -2.5
O=C(Nc1nccs1)c1cccc(NC(=O)C(F)(F)F)c1 | 11.6% | -31.0% | -0.4% | 1.0
COc1ccc(/C=C/C(=O)OCCCN(C)C)cc1 | -3.8% | -0.1% | -1.0% | 2.3
COc1cc2c(=O)n(Cc3ccccc3)c(=O)n(CC(=O)C(C)(C)C)c2cc1OC | -4.6% | -0.2% | 3.4% | 3.9
Cc1cccc(NC(=O)CN2CCN(CC(=O)Nc3ccc(-c4ccccc4)cc3)CC2)c1C | 0.2% | 6.1% | 4.4% | .
CC(=O)Nc1cccc(NC(=O)c2cc(-c3cccnc3)nc3ccc(Cl)cc23)c1 | 17.3% | 14.4% | -3.5% | 1.0
COc1ccc(S(=O)(=O)Nc2cc3[nH]c(=O)oc3cc2C)cc1 | 0.9% | 23.9% | -0.8% | .
COc1ccc(NC(=O)c2ccc(-c3ccccc3)cc2)cc1NS(=O)(=O)c1ccc(F)cc1 | 1.4% | 19.1% | 1.5% | -10.1
O=C(NC1CCS(=O)(=O)C1)c1cc(-c2ccccc2)nc2ccccc12 (centres undefined) | -3.0% | -5.6% | -5.0% | 2.4
N#CC(c1ccccc1F)(c1ncc(C(F)(F)F)cc1Cl)N1CCOCC1 (centres undefined) | -0.2% | -2.3% | -1.5% | 2.8
CCCn1c(=N)c(C#N)cc2c(=O)n3ccccc3nc21 | ? | 0.8% | ? | 5.3
COc1cc(/C=N/NC(=S)Nc2cccnc2)cc(OC)c1OC | 3.1% | -9.3% | 1.1% | 4.4
CN(C)CCCO[C@@H]1[C@H]2OC(C)(C)O[C@H]2O[C@@H]1[C@H](O)CO | -1.7% | . | 0.9% | .
CC(C)(C)OC(=O)N1CCC[C@H]1c1nnc(SCc2ccc(Cl)cc2)o1 | 0.9% | 4.5% | -2.6% | -1.2
Cc1ccc(N(CC(=O)N2CCCCC2)S(=O)(=O)c2ccc(C)cc2)cc1 | 16.9% | -2.0% | 5.9% | -1.2
CC(SC1=NCCN1S(C)(=O)=O)c1ccccc1 (centres undefined) | -8.1% | -1.2% | 1.3% | .
CCOC(=O)NC1(Nc2ccc(Cl)cn2)Oc2ccccc2O1 | . | -49.9% | . | -2.8
CC(C)(C)c1ccc(OCCON2C(=O)CCC2=O)c(Cl)c1 | 0.4% | 25.7% | 0.3% | -8.2

Some of the compounds tested; count on the stated rates, not on these rows.
